BJeLR viab HTS – BJeLR cell viability reduction; BJeLR fibroblasts viability, CellTiterGlo ATP luminescence, 48 h; HRASV12, hTERT and SV40 LT/ST transformed; viability loss activity score, % (no concentration beside the values); 0.64% of 30,000 active; in the data active = viability loss activity score above about 50%; about a fifth of its hits are not listed in these tables;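 note: higher score means fewer live cells and less ATP luminescence; stock transfer was 50 or 100 nL into about 30 µL; 0% = vehicle wells and 100% = a reference killing control; one replicate is shown; the record names a cut of 85%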
A1 inh – A1 inhibition. MEF A1-2A-BIM cells, caspase-Glo luminescence, 3 h; percent of clofoctol signal, DMSO as zero. caspase activation, % (concentration not given with the values). 0.51% of 21,000 active;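 active = most replicate scores above 10, or exactly half above 10 with mean activity above 10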;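 note: effector caspase 3 and 7 activity cleaving a DEVD luciferin substrate; 50 nL library stock added to about 30 µL; numbers are from one replicate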
* marks the source's active call; other numbers are inactive results; nt = not tested or not shown.

No.	Compound	BJeLR viab HTS	A1 inh
1	C[C@H](CO)N1C[C@H](C)[C@@H](CN(C)S(=O)(=O)c2ccc(F)cc2)Oc2ccc(NC(=O)CCN3CCOCC3)cc2C1=O	3.4	-0.7
2	C[C@@H]1O[C@@H](O[C@H]2[C@@H](Oc3cc(O)c4c(c3)O[C@H](c3ccc(O)cc3)CC4=O)O[C@H](CO)[C@@H](O)[C@@H]2O)[C@H](O)[C@H](O)[C@H]1O	-6.5	0.4
3	O=C(O)c1ccc2cc[nH]c2c1	3.4	0.3
4	CSc1cccc(NC(=O)C2CCN(S(=O)(=O)c3c(C)n[nH]c3C)CC2)c1	-4.1	nt
5	COc1ccc(NC(=O)Nc2ccc3c(c2)C(=O)N([C@@H](C)CO)C[C@@H](C)[C@@H](CN(C)C(=O)Nc2cccc4ccccc24)O3)cc1	5.0	-0.5
6	C(=C\c1ccccc1)/CSc1nc2ccccc2[nH]1	3.2	-4.7
7	CCCN1C(=S)NC2c3ccccc3OC1(C)C2C (stereo not given)	-9.4	nt
8	O=C(NCc1ccccc1)Nc1ccccc1	-1.2	-1.9
9	c1ccc(C(c2ccccc2)N2CCC2)cc1	-2.9	0.0
10	C[C@H]1CN([C@@H](C)CO)C(=O)c2cccc(NS(=O)(=O)c3ccc(F)cc3)c2O[C@@H]1CN(C)S(=O)(=O)c1ccccc1	3.6	nt
11	CC(C)(C)OC(=O)Nc1ncnc2c1ncn2C1OC(CO)C2OC(C)(C)OC21 (stereo not given)	-2.1	-0.2
12	O=C(COc1ccc2ccccc2c1)Oc1ccc(C(=O)c2ccccc2)cc1	-4.6	-2.5
13	COc1ccc(/C=C/C(=O)O[C@@H]2[C@@H](O)[C@@H](O)[C@H](O[C@@H]3C=C(CO)[C@H]4[C@H](O[C@@H]5O[C@H](CO)[C@@H](O)[C@H](O)[C@H]5O)OC=C[C@H]43)O[C@H]2C)cc1	-3.3	0.6
14	O=c1[nH]nc(-c2ccccc2)c2ccccc12	2.2	-0.5
15	O=C(CC(CC(=O)c1ccc(Br)cc1)c1cccnc1)c1ccc(Br)cc1	-0.6	-0.4
16	C[C@@H]1CN([C@@H](C)CO)C(=O)c2cc(NS(C)(=O)=O)ccc2O[C@@H]1CN(C)Cc1ccncc1	3.9	-0.2
17	Cc1cc(C(=O)Nc2cccc3c2O[C@H](CN(C)S(=O)(=O)c2ccccc2)[C@@H](C)CN([C@@H](C)CO)C3=O)n(C)n1	-0.6	nt
18	CCCc1nnc(N(Cc2ccc(Cl)cc2)C(=O)c2ccc(C)cc2)s1	2.4	-0.6
19	COc1ccc(C2C(C(=O)NC3CCCCC3)c3ccccc3C(=O)N2c2ccc(OC)cc2)cc1 (stereo not given)	5.1	nt
20	CC1(c2ccccc2)CC(C)(C)N(C(=O)C(F)(F)F)c2ccccc21 (stereo not given)	-4.7	0.0
21	CC(=O)Oc1ccccc1OC(C)c1nn(C(C)=O)c2ccccc12 (stereo not given)	-11	1.4
22	CCOc1csc2nc(C)cc(C)c12	-5.0	nt
23	COc1ccc(NC(=O)Nc2cccc3c2O[C@@H](CN(C)Cc2ccc(Oc4ccccc4)cc2)[C@H](C)CN([C@@H](C)CO)C3=O)cc1	-1.5	nt
24	Cc1nn(C(C)(C)C)c(OC(=O)c2ccccc2)c1Sc1ccccc1	4.0	nt
25	C[C@H](CO)N1C[C@H](C)[C@H](CN(C)C(=O)Nc2ccc(F)cc2)Oc2ccc(NC(=O)CCCCCC(=O)Nc3ccccc3N)cc2C1=O	0.2	nt
26	C[C@H]1CN([C@@H](C)CO)C(=O)c2cc(NC(=O)c3ccncc3)ccc2O[C@H]1CN(C)S(=O)(=O)c1ccc(F)cc1	-1.4	-0.4
27	CNC[C@H]1Oc2c(NC(=O)Nc3ccc4c(c3)OCO4)cccc2C(=O)N([C@@H](C)CO)C[C@@H]1C	-0.2	nt
28	C[C@@H]1CN([C@H](C)CO)C(=O)c2cc(NS(C)(=O)=O)ccc2O[C@@H]1CN(C)CC1CC1	0.7	0.1
29	C[C@@H]1CN([C@H](C)CO)C(=O)c2cc(NC(=O)CCCN(C)C)ccc2O[C@H]1CN(C)Cc1ccc(-c2ccccc2)cc1	7.0	0.2
30	CCN(CC)C(=O)[n+]1ccc(OC)cc1	2.3	0.7
31	O=C(Nc1c(C(=O)Nc2ccc(F)cc2)oc2ccccc12)c1ccccc1	-0.9	-0.8
32	C[C@H]1CN([C@@H](C)CO)C(=O)c2cc(NS(=O)(=O)c3cn(C)cn3)ccc2O[C@@H]1CN(C)C(=O)Nc1ccc2c(c1)OCO2	-1.2	-0.4
33	C[C@H](CO)N1C[C@H](C)[C@@H](CN(C)C)Oc2ccc(NC(=O)CCN3CCOCC3)cc2C1=O	6.0	0.2
34	Cc1ccc(SCc2cc(=O)[nH]c(Nc3nc(C)c4ccccc4n3)n2)cc1	-1.4	1.1
35	Cc1noc(C)c1NC(=O)Nc1cccc2c1O[C@@H](CN(C)CC1CCCCC1)[C@@H](C)CN([C@H](C)CO)C2=O	-3.2	nt
36	C[C@H]1CN([C@@H](C)CO)C(=O)c2cccc(NC(=O)Nc3ccc4c(c3)OCO4)c2O[C@@H]1CN(C)S(=O)(=O)c1ccc(F)cc1	6.5	nt
37	Cc1cc(C)c2c(n1)sc1c(Sc3nnc(-c4ccncc4)o3)ncnc12	-3.3	-0.3
38	CC(C)(C)c1ccc(/C=C/C(=O)NC2CCS(=O)(=O)C2)cc1 (stereo not given)	-1.3	-0.9
39	CCOC(=O)Cn1c(=O)oc2cc(S(=O)(=O)N3CCCC3)ccc21	-2.0	nt
40	C[C@@H]1CN([C@@H](C)CO)C(=O)c2cccc(NC(=O)C3CC3)c2O[C@@H]1CN(C)C(=O)Nc1ccc(C(F)(F)F)cc1	2.9	nt
41	CCC(C(=O)O)n1c2ccccc2c2cn[nH]c(=O)c21 (stereo not given)	-2.7	1.1
42	N#CC1=C(N)C(C#N)(C#N)C(c2ccccc2)C2=C1CCCC2 (stereo not given)	-2.9	0.2
43	CCN(CC)C(=O)C(c1ccccc1)c1ccccc1	4.9	-0.6
44	O=C(Cn1ncn2c(cc3ccccc32)c1=O)NCc1ccc(Cl)cc1	2.7	0.0
45	Cn1c(=O)c2ccccc2[s+]1-c1cccc2cccc(C(=O)O)c12 (stereo not given)	-4.6	0.1

Compounds listed so far containing fluorine, in the order listed:
No.	Compound	BJeLR viab HTS	A1 inh
1	C[C@H](CO)N1C[C@H](C)[C@@H](CN(C)S(=O)(=O)c2ccc(F)cc2)Oc2ccc(NC(=O)CCN3CCOCC3)cc2C1=O	3.4	-0.7
10	C[C@H]1CN([C@@H](C)CO)C(=O)c2cccc(NS(=O)(=O)c3ccc(F)cc3)c2O[C@@H]1CN(C)S(=O)(=O)c1ccccc1	3.6	nt
20	CC1(c2ccccc2)CC(C)(C)N(C(=O)C(F)(F)F)c2ccccc21 (stereo not given)	-4.7	0.0
25	C[C@H](CO)N1C[C@H](C)[C@H](CN(C)C(=O)Nc2ccc(F)cc2)Oc2ccc(NC(=O)CCCCCC(=O)Nc3ccccc3N)cc2C1=O	0.2	nt
26	C[C@H]1CN([C@@H](C)CO)C(=O)c2cc(NC(=O)c3ccncc3)ccc2O[C@H]1CN(C)S(=O)(=O)c1ccc(F)cc1	-1.4	-0.4
31	O=C(Nc1c(C(=O)Nc2ccc(F)cc2)oc2ccccc12)c1ccccc1	-0.9	-0.8
36	C[C@H]1CN([C@@H](C)CO)C(=O)c2cccc(NC(=O)Nc3ccc4c(c3)OCO4)c2O[C@@H]1CN(C)S(=O)(=O)c1ccc(F)cc1	6.5	nt
40	C[C@@H]1CN([C@@H](C)CO)C(=O)c2cccc(NC(=O)C3CC3)c2O[C@@H]1CN(C)C(=O)Nc1ccc(C(F)(F)F)cc1	2.9	nt

(cont.)
No.	Compound	BJeLR viab HTS	A1 inh
46	COc1ccc(NC(=O)N(C)C[C@H]2Oc3ccc(NC(=O)Cc4cn(C)c5ccccc45)cc3C(=O)N([C@H](C)CO)C[C@@H]2C)cc1	-2.2	-0.8
47	C1=CN(c2ccccc2)C(C=NCc2ccccc2)=CS1	-3.4	0.1
48	CN1CCc2c(-c3cccs3)nc(OCc3ccccc3Br)c(C#N)c2C1	3.0	0.5
49	COc1ccc(NC(=O)Nc2ccc3c(c2)C(=O)N([C@H](C)CO)C[C@@H](C)[C@@H](CN(C)C(=O)NC2CCCCC2)O3)cc1	-11	0.6
50	COc1ccc(NC(=O)N(C)C[C@H]2Oc3ccc(NC(=O)Nc4ccc5c(c4)OCO5)cc3C(=O)N([C@@H](C)CO)C[C@H]2C)cc1	4.0	0.8
51	N#Cc1nc(COc2ccccc2)oc1NCc1cccnc1	-6.5	0.2
52	C[C@@H]1CN([C@@H](C)CO)C(=O)c2cc(NC(=O)Nc3ccccc3)ccc2O[C@H]1CN(C)S(C)(=O)=O	2.2	0.0
53	CC(C)(C)c1cc(C(=O)Oc2ccc(Cl)cc2)n(Cc2ccccc2)n1	4.0	-0.4
54	C[C@@H]1CN([C@@H](C)CO)C(=O)c2cc(NC(=O)Nc3ccc4c(c3)OCO4)ccc2O[C@H]1CN(C)S(C)(=O)=O	1.9	-0.2
55	C[N+]1(C)C2CC[C@H]1CC(OC(=O)C(O)c1ccccc1)C2 (stereo not given in full)	2.8	-0.2
56	O=C(Nc1cc(C(F)(F)F)cc(C(F)(F)F)c1)C(=S)N1CCCCC1	-0.4	-1.0
57	O=C1c2nc3cc(-c4ccccc4)[nH]n3c(=O)c2CN1C1CCCCC1	3.1	0.5
58	S=C(NCCc1ccccc1)N1CCc2ccccc21	-1.9	2.3
59	O=C(Nc1ccc(Cl)cc1)Nc1nc(-c2ccccc2)cs1	1.0	0.7
60	CCOC(=O)c1c(NC(=O)c2ccco2)sc2c1CCCC2=O	4.5	0.4
61	COc1ccc(NC(=O)N(C)C[C@H]2Oc3c(NC(=O)c4nc5ccccc5s4)cccc3C(=O)N([C@@H](C)CO)C[C@@H]2C)cc1	-3.4	nt
62	Clc1cccc(N2CCN(c3c4c(nc5ccc(Cl)cc35)CCC4)CC2)c1	-0.7	nt
63	COc1ccc(NC(=O)N(C)C[C@@H]2Oc3ccc(NS(=O)(=O)c4c(C)noc4C)cc3C(=O)N([C@H](C)CO)C[C@H]2C)cc1	-1.8	0.0
64	C[C@@H]1CN([C@H](C)CO)C(=O)c2cccc(NS(C)(=O)=O)c2O[C@H]1CN(C)Cc1ccncc1	4.3	nt
65	O=C1CN(C(=O)/C=C/c2ccccc2)C(c2ccccc2)c2cc(Br)ccc2N1 (stereo not given)	4.1	0.0
66	C[C@H](CO)N1C[C@H](C)[C@@H](CN(C)Cc2ccccc2)Oc2ccc(NS(=O)(=O)c3ccc(Cl)cc3)cc2C1=O	-2.3	-0.2
67	Cc1ccc(S(=O)(=O)N[C@H](Cc2ccccc2)C(=O)CCl)cc1	-0.1	3.2
68	CN1C(=O)C(=Cc2cccn2-c2ccc(N(C)C)cc2)C(=O)N(C)C1=S	1.7	-0.3
69	C[C@@H]1CN([C@H](C)CO)C(=O)c2cc(NC(=O)NC3CCCCC3)ccc2O[C@@H]1CN(C)C(=O)Nc1cccc2ccccc12	3.5	0.7
70	C[C@@H]1CN([C@H](C)CO)C(=O)c2cc(NC(=O)Cn3cnnn3)ccc2O[C@H]1CN(C)S(=O)(=O)c1ccccc1	-0.1	1.4
71	CS(=O)CCNC(=O)Nc1ccc(Cl)c(Cl)c1 (stereo not given)	-4.7	1.2
72	CN(C)C(=S)Nc1ccc(S(=O)(=O)N2CCCCC2)cc1	3.6	1.7
73	COc1ccc([C@@H](C)C(=O)c2ccc(O)cc2O)cc1	-2.5	-0.4
74	COc1cccc(-c2nc(-c3ccccc3)[nH]c2-c2cccc(OC)c2)c1	0.5	-0.3
75	C[C@H](CO)N1C[C@H](C)[C@H](CN(C)Cc2ccc(Cl)c(Cl)c2)Oc2c(NC(=O)Nc3ccc(C(F)(F)F)cc3)cccc2C1=O	-2.3	nt
76	C[C@@H]1CN([C@H](C)CO)C(=O)c2cc(NS(C)(=O)=O)ccc2O[C@@H]1CN(C)C(=O)Nc1ccccc1	2.5	0.1
77	CC(=O)OCC(=O)Nc1ccccc1C#N	2.5	0.2
78	CC(=O)OC(C)(C)[C@@H]1Cc2cc3ccc(=O)oc3cc2O1	-1.0	0.2
79	C[C@@H]1CN([C@H](C)CO)C(=O)c2cc(N(C)C)ccc2O[C@H]1CN(C)CC1CCCCC1	-0.9	-0.4
80	C[C@@H]1CN([C@H](C)CO)C(=O)c2cc(NC(=O)Nc3cccc4ccccc34)ccc2O[C@H]1CN(C)C	-1.2	0.1
81	C[C@H](CO)N1C[C@H](C)[C@@H](CN(C)CC2CCCCC2)Oc2ccc(NC(=O)c3ccncc3)cc2C1=O	1.6	0.3
82	CNC[C@H]1Oc2c(cccc2N(C)C)C(=O)N([C@H](C)CO)C[C@H]1C	11	nt
83	NC(=O)Cn1nnc2sc3c(c2c1=O)CCCC3	11	-0.3
84	C=C[C@@]1(C)CC(=O)[C@]2(O)[C@@]3(C)[C@@H](O)CCC(C)(C)[C@@H]3[C@H](O)[C@H](OC(=O)CCCN3CCN(C)CC3)[C@@]2(C)O1	3.8	-0.5
85	C[C@H]1CN([C@@H](C)CO)C(=O)c2cccc(NC(=O)Nc3ccc4c(c3)OCO4)c2O[C@@H]1CN(C)S(=O)(=O)c1ccc(Cl)cc1	-0.3	nt
86	COc1cc(CCC(O)CC(O)CCc2ccc(O)c(O)c2)ccc1O (stereo not given)	-16	0.2
87	Cc1cccc(N2CCN(C(=O)CC3(CC4=NS(=O)(=O)c5ccccc5N4)CCCC3)CC2)c1C	-1.2	-1.1
88	COc1ccc(NC(=O)N(C)C[C@H]2Oc3ccc(NC(=O)Cc4ccccc4)cc3C(=O)N([C@@H](C)CO)C[C@@H]2C)cc1	1.2	-0.1
89	Cc1noc(C)c1NC(=O)Nc1cccc2c1O[C@@H](CN(C)C(=O)Nc1ccc3c(c1)OCO3)[C@H](C)CN([C@@H](C)CO)C2=O	-1.6	nt
90	N#Cc1cccc(CSc2nnc(SCc3cccc(C#N)c3)s2)c1	2.9	-0.4

Source: PubChem

Only part of the results is shown; the hit share may differ from the screen's.
